From PubChem BioAssay
NPYLR7 ag: agonists of mosquito NPYLR7 receptor, primary screen, cell-based, Aedes aegypti, calcium fluorescence, mosquito biting behavior | HEK293T NPYLR7/Galpha15, GCaMP6s calcium fluorescence | Aedes aegypti neuropeptide Y-like receptor 7 (NPYLR7) | activation, % at 10 µM | AID 1259423, 2018 | actives 0.15% (n = 270,000); in the data active = activation above about 40%;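 also: 0% = vehicle and 100% = reference agonist at the receptor; some compounds past the cut are filed as inactive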
NPYLR7 ag max-min: also measured in NPYLR7 ag; calls as there; activation, %; measured here: Max-Min RFU normalised activation; some inactives read as strong as hits;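 span of the calcium signal over five minutes; 0% = vehicle and 100% = native peptide agonist; compound fluorescence can raise it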
Active calls of the source: *; & = joins results of further samples. The list is partial, so the mix of outcomes need not match the whole.

SMILES	NPYLR7 ag	NPYLR7 ag max-min
Cc1c(C(=O)N2CC3(C)CC2CC(C)(C)C3)cc(-c2ccc(Cl)cc2)n1-c1ccc(F)cc1 (centres undefined)	10	8
Fc1ccccc1Cc1noc(CN2CCCN(c3ncccn3)CC2)n1	8&0	5&-3
CCn1c(SCC(=O)Nc2ccc(OC)cc2OC)nc2c([nH]c3ccccc32)c1=O	0	-1
O=C(NCC1CCOCC1)C1=COC2=NC(=O)N(Cc3ccccc3)CCN12	0	-1
CCNC(=O)NC(=O)COC(=O)CN(CC)c1ccccc1	12	3
C=CCN(C)C(=O)CCSCc1ccc(F)cc1	-1	15
Fc1cccc(CN(CC2CCN(C3CCCC3)CC2)CC2CCCO2)c1 (centres undefined)	17	5
Cc1cccc2[nH]c(CN(C)[C@H]3CN(S(=O)(=O)c4ccccc4)C[C@@H]3O)nc12	2	1
CSc1cccc(CN(C(=O)c2cnccn2)C(C)C)c1	17	4
COc1ccc(C2=NOC(CN(Cc3ccccc3Cl)CC(O)COCc3ccccc3)C2)cc1 (centres undefined)	-1	5

The list continues.
SMILES	NPYLR7 ag	NPYLR7 ag max-min
O=C(CSc1ccccc1)N1CCCN(C(=O)CN2CCc3sccc3C2c2cccc(F)c2)CC1 (centres undefined)	16	7
COc1cccc(C(=O)N(Cc2cc(Cl)ccc2OCc2nc(CO)cs2)C(C)c2ccccc2)c1 (centres undefined)	11	14
COc1ccc(NCc2ccc(OC)c(Br)c2)cn1	86*	59*
O=C(C1CCCCC1)N1CC[C@@H](N2CCN(CCc3ccccc3)CC2)[C@H](O)C1	1	0
Cc1ccsc1CN(Cc1cccnc1N1CCOCC1)CC(C)C	-6	-9
CCCN(CC(=O)N1CCc2sccc2C1COc1ccc(Cl)c(C)c1)C(=O)c1cccc(Cl)c1 (centres undefined)	20	20
Cc1nn(-c2ccc(C(C)C)cc2)c(C)c1CCC(=O)NCc1ccccn1	-5	-13
Cc1ccc(CN2C(=O)COCc3cc(-c4cnn(C)c4)ccc32)cc1	10	6
O=C(NCc1ccccn1)c1ccc(CSc2ccc3ccccc3n2)cc1	-7	-12
C#CCn1c(-c2nonc2N)nc2ccccc21	2	-1

Carrying on.
SMILES	NPYLR7 ag	NPYLR7 ag max-min
COc1cc(C=NNC2=NCCCCC2)cc(OC)c1OC	-1	-2
CCOC(=O)CCC(=O)N1CCN(C(C(=O)Nc2ccc(C(C)C)cc2)C2CCCC2)CC1 (centres undefined)	-4	-1
CCOC(=O)C1(CC2CC2)CCN(C(=O)c2cc(-c3ccccc3)n[nH]2)CC1	4	0
O=C(c1nc2ccccn2c1CNCCc1ccccc1F)N1CCOCC1	9	5
O=C(Nc1cccnc1N1CCN(C(=O)c2ccc(F)c(F)c2)CC1)c1ccc2c(c1)OCO2	23	11
COC(=O)CC1C(=O)NCCN1C(=O)C(C)Oc1ccc(Br)cc1 (centres undefined)	12	8
N#CCCn1ccc(NC(=O)C(=O)NC(c2ccccc2)C2CCC2)n1 (centres undefined)	4	3
Cc1ccc(S(=O)(=O)NC(C)(C)C)c(Cl)c1	7	1
COc1ccc(S(=O)(=O)Nc2ccc(-c3ccc(N4CCC(C)CC4)nn3)cc2)c(OC)c1	2	3
OCCSc1nc2c3ccccc3ncn2n1	7	9

(further entries)
SMILES	NPYLR7 ag	NPYLR7 ag max-min
Cc1ccc2oc(C(=O)NC(C)C3CC4CCC3C4)cc(=O)c2c1 (centres undefined)	4	3
CC(C)C(NS(=O)(=O)c1cccs1)C(=O)Nc1ccc(I)cc1 (centres undefined)	8	6
Cc1cc(C)c2ccc(C(=O)N3CCCC(O)(CO)C3)nc2c1O (centres undefined)	-4	-5
O=C1c2ccccc2C(=O)N1CC(=O)N(Cc1cccnc1)c1nc2ccc(Cl)cc2s1	-13	-6
COCCNC(=O)CCc1c(-c2ccccc2)nc2ccc(-c3ccccc3Cl)cn12	5	0
CCCCN(CC)Cc1csc(C)c1CC	2	3
Cc1cc(CNC(=O)c2cnn(C)c2)ccc1F	-1	-4
CCOC(=O)c1cc(-c2ccc(N3CCN(C(=O)COc4cccc(Cl)c4)CC3)cc2)n(-c2ccc(F)cc2)n1	18	12
Cc1ccccc1N=C1S/C(=C\c2ccc(O)cc2)C(=O)N1c1ccccc1C	2	-2
CCCC(=O)Nc1ccccc1CN(C)C(=O)c1cccs1	1	322

The results go on.
SMILES	NPYLR7 ag	NPYLR7 ag max-min
O=C(NC1CCOC1=O)c1ccc(Cc2ccccc2)o1 (centres undefined)	6	4
O=c1oc2ccc([N+](=O)[O-])cc2c2nsnc12	2	0
O=S(=O)(Nc1cnccc1-n1cccn1)c1ccccc1Cl	4	3
O=c1oc2ccc(Cl)cc2cc1-c1nnc(Nc2cc(C(F)(F)F)ccc2Cl)s1	2	-1
O=C(CSc1ncc(C(F)(F)F)cc1Cl)Nc1ccc(N2CCOCC2)cc1	-8	-12
O=C(NCc1cccc(C(F)(F)F)c1)c1ccccc1N1CCC(NC(=O)C2CCCCC2)CC1	-11	-10
O=C(O)CN1C(=O)/C(=C/c2ccccc2OCc2ccccc2)SC1=S	-3	-6
CC(Oc1cccc(Cl)c1)C(=O)N1CCn2cncc2C1 (centres undefined)	0	-4
COc1ccccc1C1CN(CCNC(=O)c2ccc(C(C)=O)cc2)Cc2ccccc2O1 (centres undefined)	17	8
CN(Cc1ccccc1O)C(=O)Nc1ccc(C(=O)NC(C)(C)C)cc1	-5	-8

The results go on:
SMILES	NPYLR7 ag	NPYLR7 ag max-min
CCOC(=O)c1c(NC(=O)c2ccco2)sc(C(=O)Nc2cccc(C(F)(F)F)c2)c1C	-4	3
C=CCn1c(SCCC)nc2c1c(=O)n(C)c(=O)n2C	11	1
COc1ccc(CNc2nc3c(-c4ccccc4)nnn3c3ccccc23)cc1	3	-3
Cc1ccc(C)c(C2=NN(C(=O)CN3CCN(c4ccccc4F)CC3)C(c3ccccc3Cl)C2)c1 (centres undefined)	22	16
CCOC(=O)CCCSc1nnc(-c2ccc(OC)cc2)n1-c1ccccc1C	17	21
Cc1cccc(C)c1NC(=O)C(C)OC(=O)Cn1c(C)ccc1C (centres undefined)	8	6
CCOc1cc(C=C(C#N)c2ccc([N+](=O)[O-])cc2)cc(Br)c1OC	13	5
Cc1cc(NC(=O)CSc2nnc(NCC(F)(F)F)s2)no1	1	10
CCOC(=O)CCc1c(C)nc2ncnn2c1NCc1cnc(C)cn1	31	20
N#CCCN(Cc1ccccc1)C(=O)Nc1cc(F)ccc1F	17	11

Next records follow:
Second line of a record: NPYLR7 ag | NPYLR7 ag max-min
> O=C(/C=C/c1ccccc1)NC1CCN(c2ccccc2C(=O)NCc2cccnc2)CC1
 : 22 | 21
> Cc1cc([N+](=O)[O-])cc2c1N(C)C(=O)/C2=C1\SC(N(C)c2ccc(Cl)cc2)=NC1=O
 : -1 | -1
> COc1cc(OC)cc(-c2onc(C)c2C(=O)NCc2ccc(F)cc2F)c1
 : 1 | -2
> COc1ccc2[nH]c(CN3CCCC(OCc4ccccn4)C3)c(C)c2c1 (centres undefined)
 : -2 | -3
> Cc1ccc(-c2cc(C(=O)NCCCN3CCOCC3)n(-c3ccc(Cl)c(Cl)c3)n2)cc1C
 : 0 | 5
> N#CC1C(=O)NC(=O)C([n+]2ccccc2)C1c1ccc(Cl)cc1 (centres undefined)
 : 1 | 1
> COc1ccc(N2C(=O)CN(CCc3cccs3)C3CS(=O)(=O)CC32)cc1 (centres undefined)
 : 1 | 3
> CC(C)c1cnc2c(c1SCC(=O)N1CCOCC1)c(=O)n(C)c(=O)n2C
 : -1 | 6
> CCCCNC(C)c1nc2ccc(Cl)cc2c(=O)n1CC (centres undefined)
 : 8 | 12
> Cn1ncc2c(NCc3ccccc3)nc(N3CCN(Cc4ccccc4)CC3)nc21
 : 5 | 1
> N#CC(c1ccccc1)c1cn2cc(Br)ccc2n1 (centres undefined)
 : 1 | -1
> O=C(CC1(C(F)(F)C(F)F)NCCN1)c1cccs1
 : 3 | 1
> C=CCn1c(=O)c(C(=O)Nc2cc(C)ccn2)c(O)c2ccccc21
 : 7 | 5
> O=C(Nc1ccccc1C(=O)N1CCN(Cc2ccccc2)CC1)c1ccccc1F
 : 7 | 3
> CCc1ccc(NC(=O)N2CCN(C(=O)c3cc(-c4ccccc4)n(-c4ccc(OC)c(OC)c4)c3C)CC2)cc1
 : -9 | -2
> COc1cc(C)cc2c1OCCC2NC(=O)NCc1ccc2c(c1)OCO2 (centres undefined)
 : -6 | -7
> CCOC(=O)c1c(CN2CCN(C)CC2)n(C2CCCCC2)c2cc(Br)c(O)cc12
 : -7 | -9
> COc1cccc(C(=O)CN2C(=O)NC3(CCCCC3C)C2=O)c1 (centres undefined)
 : 0 | -2
> COc1ccccc1Cc1nc2c(c(N3CCOCC3)n1)CN(C(=O)c1ccccc1F)CC2
 : 19 | 21
> COc1cccc(Cl)c1-c1cc(CO)ccn1
 : -1 | -5

Full records, quoted from the list. Values in the order: NPYLR7 ag | NPYLR7 ag max-min
O=C(NCC1CCOCC1)C1=COC2=NC(=O)N(Cc3ccccc3)CCN12 in the list: 0 | -1
Cc1cccc(C)c1NC(=O)C(C)OC(=O)Cn1c(C)ccc1C (centres undefined) in the list: 8 | 6
CCOC(=O)c1c(CN2CCN(C)CC2)n(C2CCCCC2)c2cc(Br)c(O)cc12 in the list: -7 | -9

Three entries already listed, arranged by heavy-atom count, descending.
Second line of a record: NPYLR7 ag | NPYLR7 ag max-min
> O=C(Nc1ccccc1C(=O)N1CCN(Cc2ccccc2)CC1)c1ccccc1F
 : 7 | 3
> CCOC(=O)c1c(CN2CCN(C)CC2)n(C2CCCCC2)c2cc(Br)c(O)cc12
 : -7 | -9
> C=CCn1c(=O)c(C(=O)Nc2cc(C)ccn2)c(O)c2ccccc21
 : 7 | 5

Going on with the list.
Second line of a record: NPYLR7 ag | NPYLR7 ag max-min
> C=CCCC(=O)N[C@H]1[C@H](OC(=O)NCC)[C@@H]2O[C@H]1c1ccccc12
 : 5 | 15
> O=c1c2nnn(Cc3ccc(F)cc3)c2ncn1Cc1ccccc1F
 : 7 | 9
> Cc1nn(-c2ccccc2)cc1CN1CCN(Cc2cccc(F)c2)CC1
 : 6 | 5
> O=C(O)CC1CNCCN(Cc2ccccc2Cn2cccn2)C1 (centres undefined)
 : -6 | -7
> CCSc1nc(CC(=O)N2C[C@H](N)C[C@H]2C(=O)NC)cs1
 : 5 | 4
> C[C@@H]1C(=O)O[C@H]2[C@@H](O)C34[C@H]5C[C@@H](C(C)(C)C)C36[C@@H](OC(=O)[C@@H]6O)O[C@@]4(C(=O)O5)[C@@]12O (some centres undefined)
 : -10 | -13
> Cc1ccc2c(c1)SC(C)C(=O)N2Cc1ccc(Cl)cc1 (centres undefined)
 : 6 | 4
> O=C1c2ccccc2-c2ccc(Br)c3cccc1c23
 : -13 | -19
> COc1ccccc1Nc1ncccc1C(=O)N(C)Cc1cnn(C)c1
 : 10 | 3
> COc1cc(OC)c(Br)c(-n2c(C(C)N(C)C(=O)c3cccc(C(F)(F)F)c3)nc3ccccc3c2=O)c1 (centres undefined)
 : -6 | -6
> COC1=CC(=O)C(O)=C/C1=C\C=C\c1ccccc1
 : -4 | -11
> COC(=O)c1c(NC(=O)c2ccccc2Cl)sc2c1CCCC2
 : -2 | -3
> Cc1cccc(Cn2c(C)c(C)c(C)c2C(=O)NCc2ccc3c(c2)OCO3)c1
 : 22 | 33
> CC(=O)c1ccc(NC(=O)CSc2nc(=O)n(CCO)c3c2CCCC3)cc1
 : -11 | -18
> CCCCS(=O)(=O)NC(C)c1ccccc1Cl (centres undefined)
 : -10 | -11
> O=C(CCc1nnc(-c2ccsc2)o1)N1CCC(c2ccccc2)C1 (centres undefined)
 : -3 | 749
> CN(C(=O)C1CC1)C(Cc1ccc(F)cc1F)C1CCN(C(=O)c2ccc(F)cc2Cl)CC1 (centres undefined)
 : 0 | -5
> COc1cccc(C2C(C(=O)OC3CCCC3)=C(C)NC3=C2C(=O)CC(c2ccc(Cl)cc2)C3)c1 (centres undefined)
 : -4 | -7
> CCCc1nc(N2CCCN(S(=O)(=O)c3ccc([N+](=O)[O-])cc3)CC2)c2c(-c3cccc(C(F)(F)F)c3)noc2n1
 : 14 | 31
> O=C(NCc1cnn2ccccc12)C1CCCN(c2ccccn2)C1 (centres undefined)
 : -3 | -3

Of the compounds above, 3 contain a tert-butyl group.
Second line of a record: NPYLR7 ag | NPYLR7 ag max-min
> Cc1ccc(S(=O)(=O)NC(C)(C)C)c(Cl)c1
 : 7 | 1
> CN(Cc1ccccc1O)C(=O)Nc1ccc(C(=O)NC(C)(C)C)cc1
 : -5 | -8
> C[C@@H]1C(=O)O[C@H]2[C@@H](O)C34[C@H]5C[C@@H](C(C)(C)C)C36[C@@H](OC(=O)[C@@H]6O)O[C@@]4(C(=O)O5)[C@@]12O (some centres undefined)
 : -10 | -13

Additional entries:
Second line of a record: NPYLR7 ag | NPYLR7 ag max-min
> CC1(C(=O)Nc2cccc(Oc3ccccc3)c2)CCN1Cc1ccsc1 (centres undefined)
 : 5 | 0
> CN(C)S(=O)(=O)c1cc(C(=O)OCC2CC2)ccc1Br
 : -14 | -14
> Oc1ccc(Br)cc1C1Nc2cccc3cccc(c23)N1
 : -8 | -9
> O=C(Nc1ccc2c(c1)OCO2)C1CCCCC1c1nc2ccccc2s1 (centres undefined)
 : 13 | 5
> CC(=O)Nc1cccc(NC(=O)CSc2ncc(CO)n2CC(=O)NC2CCCC2)c1
 : 5 | 3
> NC(=O)CCN(C(=O)/C=C/c1cccs1)c1ccccc1Cl
 : 8 | 1
> O=[N+]([O-])c1ccc(Sc2nnc(-c3cccc(Br)c3)o2)c([N+](=O)[O-])c1
 : 0 | -5
> CCOc1ccccc1NC(=O)N(CC(=O)N(Cc1ccccc1)Cc1cccs1)C1CCCCC1
 : 14 | 22
> CC(C)N(Cc1nccn1C)C(=O)c1c[nH]c(=O)cn1
 : 7 | -4
> C=C(Br)Cn1c(COc2ccccc2)nc2ccccc21
 : 8 | 8
> CCc1ccccc1NC(=O)CCCN1C(=O)NC2(CCCC2)C1=O
 : -7 | 11
